Source: PubChem BioAssay
GoLoco inh red: qHTS Assay for Inhibitors of RGS12 GoLoco Motif Activity (Red Fluorophore) | Guanine nucleotide-binding protein G(i) subunit alpha-1 (Homo sapiens), P63096 | Gai1:RGS12 GoLoco peptide FP, rhodamine, 10 min | Potency, µM (highest dose often 61.6 µM), inactives show at the top dose activity, negative = inhibition, hits mostly inhibitors | 230,000 compounds, 0.44% hits | AID 880, 2007; active = well fitted inhibition curve with a large enough effect, not every such curve was filed as active; inactive = no such curve, though single readings can be large or run the other way; also: % is scaled to controls: 0 for no effect and ±100 for the full control effect; nearly all actives have a fitted effect of over 30% in size; many of its hits are not listed in these tables
Target sequence (P63096 whole entry, looked up): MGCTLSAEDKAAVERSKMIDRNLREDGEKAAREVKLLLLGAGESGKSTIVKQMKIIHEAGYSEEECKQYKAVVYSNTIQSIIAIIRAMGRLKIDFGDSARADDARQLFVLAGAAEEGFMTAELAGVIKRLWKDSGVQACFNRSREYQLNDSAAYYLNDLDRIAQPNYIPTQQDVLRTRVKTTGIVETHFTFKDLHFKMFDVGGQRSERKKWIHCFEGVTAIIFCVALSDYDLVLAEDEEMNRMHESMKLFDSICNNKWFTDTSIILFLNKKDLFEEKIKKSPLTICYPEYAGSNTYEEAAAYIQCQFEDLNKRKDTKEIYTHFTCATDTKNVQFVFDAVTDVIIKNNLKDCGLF
SMN2 splice enh: qHTS Assay for Enhancers of SMN2 Splice Variant Expression. HEK293 SMN2-luciferase splicing reporter, luminescence, 30-36 h. Potency, µM (series often up to 46.1 µM), for inactives: at the highest dose activity change, positive = activation, usual class: activators. 210,000 compounds, 2.8% hits. AID 1458, 2008; also: % of control where 0% means no effect; nearly all actives have a fitted effect of over 55% in size
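HEK293 cells carry an SMN2 minigene-luciferase reporter in which exon 7 inclusion puts luciferase in frame. Cells were seeded at 2000 cells/well, attached for 10-12 hours, then exposed to compounds for 30-36 hours at 37C before ONE-Glo luminescence.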
KDM4E inh: qHTS Assay for Inhibitors of Human Jumonji Domain Containing 2E (JMJD2E); Lysine-specific demethylase 4E (Homo sapiens), B2RXH2; JMJD2E catalytic domain, FDH-coupled NADH fluorescence (FDH is formaldehyde dehydrogenase); Potency, µM (highest dose often 57.1 µM), inactives show at the highest dose activity change, negative = inhibition, hits mostly inhibitors; 230,000 compounds, 1.6% hits; AID 2147, 2009; active = well fitted inhibition curve with a large enough effect, not every such curve was filed as active; inconclusive = small, poorly fitted or top-dose-only effect, or another doubt; inactive = no such curve, though single readings can be large or run the other way;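 also: 0% = wells with enzyme and -100% = buffer wells without enzyme; nearly all actives have a fitted effect of over 50% in size; many of its hits are not listed in these tables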
Target sequence (B2RXH2 1-337 limits assumed): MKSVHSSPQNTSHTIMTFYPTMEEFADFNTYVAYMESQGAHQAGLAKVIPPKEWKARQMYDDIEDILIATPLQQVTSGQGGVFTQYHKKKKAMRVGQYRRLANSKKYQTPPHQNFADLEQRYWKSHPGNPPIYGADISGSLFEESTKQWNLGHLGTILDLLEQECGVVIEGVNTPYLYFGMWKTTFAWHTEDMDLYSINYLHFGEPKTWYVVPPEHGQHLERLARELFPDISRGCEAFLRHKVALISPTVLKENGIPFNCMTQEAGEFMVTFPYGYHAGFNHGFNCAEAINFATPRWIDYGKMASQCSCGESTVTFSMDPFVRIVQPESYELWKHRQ
TexasRed fluor: Total Fluorescence Counterscreen for Inhibitors of the Interaction of Thyroid Hormone Receptor and Steroid Receptor Coregulator 2. TRb/SRC2 Texas Red total fluorescence interference. Potency, µM (titrated, usually from 106 µM), for the others: at the highest dose fluorescence change, negative = quenching. 280,000 compounds, 0.29% hits. AID 1479, 2009; active = well fitted curve in either direction with a large enough effect; inconclusive = small, poorly fitted or top-dose-only effect; also: % is scaled to controls: 0 for no effect and ±100 for the full control effect
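Human TRβ ligand-binding domain (0.6 uM) and Texas Red SRC2 peptide (20 nM) in Tris buffer with 1 uM T3 and 5% DMSO were incubated with pinned compound for 5 hr at ambient temperature. Total fluorescence was computed as S + 2P (555/632 nm).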
LMNA splice mod: qHTS Assay for Modulators of Lamin A Splicing; HeLa LMNA splicing GFP/RFP minigene ratio, 48 h; Potency, µM (series often up to 46.1 µM), inactives show top-dose ratio change, negative = inhibition, hits mostly inhibitors; 200,000 compounds, 0.01% hits; AID 1487, 2009; active = well fitted inhibition curve with a large enough effect in the signal ratio, with a control signal flat, not every such curve was filed as active; inconclusive = small, poorly fitted or top-dose-only effect, or effect the other way, or a change in a side signal; the % refers to the signal ratio; also: % is scaled to controls: 0 for no effect and ±100 for the full control effect
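S3 HeLa stable clones carrying a lamin A-EGFP splicing minigene plus DsRed2 were seeded at 600 cells/well in Opti-MEM with 2% FBS, pin-dosed and incubated 48 h at 37°C. Acumen cytometry (488 nm) gave the GFP/RFP total-intensity ratio.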
TRb-SRC2 inh: qHTS for Inhibitors of the Interaction of Thyroid Hormone Receptor and Steroid Receptor Coregulator 2; TRbeta-SRC2 peptide binding, fluorescence polarization; receptor liganded with 1 µM T3; Potency, µM (doses to about 106 µM), for the others: at the highest dose activity change, negative = inhibition, hits mostly inhibitors; 280,000 compounds, 0.065% hits; AID 1469, 2008;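 also: plate controls were bound peptide for no effect and peptide without receptor for full effect; nearly all actives have a fitted effect of over 50% in size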
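Polarization signal, normalized between peptide-alone and full complex controls, measured compound effects on T3-liganded human TRb LBD (0.6 uM) binding 20 nM Texas Red SRC2 peptide after 5 hr.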
RECQ1 helicase: qHTS Assay for Inhibitors of RecQ-Like Dna Helicase 1 (RECQ1) | ATP-dependent DNA helicase Q1 (Homo sapiens), P46063 | RECQ1 DNA unwinding, red fluorescence kinetic read | Potency, µM (highest dose often 57.3 µM), for inactives: at the top dose activity, negative = inhibition, actives largely listed as inhibitors | 240,000 compounds, 0.54% hits;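 also: plate controls were vehicle for no effect and no enzyme for full effect; nearly all actives have a fitted effect of over 30% in size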
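50 nM RECQ1T1 preincubated 15 min with compound in Tris pH 8.0 buffer with MgCl2, DTT, Tween-20 and 2.5 ug/ml poly(dI-dC); started with 200 nM TAMRA/BHQ-2 forked duplex and 2 mM ATP. Unwinding read as fluorescence (525/598 nm), two reads 2 h apart.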
An asterisk follows results filed as active; i = inactive; ? = inconclusive; · = no result given; & = joins results of further samples; [ ] = remark or other dose. Unless noted, calls follow the shape of the dose curve; as a rule, active = well fitted curve in the direction sought with a large enough effect; inconclusive = small, poorly fitted or top-dose-only effect, or another doubt; inactive = no such curve, though single readings can be large; an effect the other way counts as inactive or inconclusive. Potency is read from the fitted curve at half-maximal effect. A portion of the library, so the mix of outcomes need not match the whole.

1) CN(C)S(=O)(=O)c1cccc(NC(=O)c2ccc(OC(F)(F)F)cc2)c1
2) C#CCNC(=O)C1=C[C@H](C2CCCCC2)C[C@H](OCc2ccc(CO)cc2)O1
3) Cn1c(=O)n(Cc2ccc(Cl)cc2)c2ccccc21
4) Cc1cc(C(=O)CSc2n[nH]c(-c3ccccc3F)n2)c(C)n1Cc1cccs1
5) Cc1cc(OCc2nnc(SCC(=O)OC3CCCCC3)o2)ccc1Cl

compound no. | 1 | 2 | 3 | 4 | 5
RECQ1 helicase | -10% | -13% | -8% | i | i
LMNA splice mod | ? | · | -6% | ? | 0%
GoLoco inh red | 4% | -11% | -3% | 9% | -4%
SMN2 splice enh | -53%[inhibitor] | · | -22% | -8% | 15%
TRb-SRC2 inh | -1%[53 µM] | -4% | 2% | 6% | -1%
KDM4E inh | -4% | -14% | 4% | 1% | 1%
TexasRed fluor | -3%[53 µM] | 1% | 1% | -1% | -1%

6) O=C(N/C(=C/c1cccc(Br)c1)c1nc(=S)[nH][nH]1)c1ccccc1
7) N#CCCn1nnc2ccccc21
8) Cc1ccccc1-n1c(SCc2cccc(F)c2)nc2[nH]ncc2c1=O
9) CC(C)CNC(=O)COC(=O)c1ccc([N+](=O)[O-])cc1Cl
10) COCCNC(=O)C1CC(c2ccccc2[N+](=O)[O-])=NO1 (stereo not given)

compound no. | 6 | 7 | 8 | 9 | 10
RECQ1 helicase | -7% | 1% | -2% | -5% | -16%
LMNA splice mod | ? | -1% | 1% | 5% | -4%
GoLoco inh red | 6% | -5% | 3% | 0% | 3%
SMN2 splice enh | 3% | -9% | 12% | 10% | -12%
TRb-SRC2 inh | -6% | -4% | 7% | 0% | 6%
KDM4E inh | 11% | 9% | 10% | 0% | 5%
TexasRed fluor | -1% | -2% | 0% | 0% | -1%

11) O=C(CSCc1ccccc1Cl)Nc1ccc2c(c1)OCCO2
12) CCOc1ccc(C(=O)N2CCN(c3ccccc3)CC2)cc1
13) O=C(NN1CCOCC1)c1ccc(Cl)s1
14) Cc1cc(C)n(CC(=O)c2cccc([N+](=O)[O-])c2)n1
15) Cc1nn(CCc2n[nH]c(=S)n2-c2ccc(F)cc2)c(C)c1[N+](=O)[O-]

compound no. | 11 | 12 | 13 | 14 | 15
RECQ1 helicase | -7% | -3% | -5% | i | -3%
LMNA splice mod | 11%[0.0737 µM] | -1%[46 µM] | 11%[46 µM] | · | 0%
GoLoco inh red | 1% | -6% | 6% | 3% | -16%
SMN2 splice enh | 45% | · | · | 19% | -5%
TRb-SRC2 inh | 2% | 2% | 6% | -1% | -3%
KDM4E inh | 4% | 5% | -8% | -3% | -5%
TexasRed fluor | 0% | 0% | 0% | 0% | -4%

16) O=C(CNS(=O)(=O)c1ccc(F)cc1)N1CCN(c2ccc(F)cc2)CC1
17) O=C(c1cccs1)N(c1cccc(Cl)c1)C1C=CS(=O)(=O)C1 (stereo not given)
18) Cc1cccc(OCC(=O)Nc2ccc(N3CCN(S(C)(=O)=O)CC3)cc2)c1
19) C/C(=N\NC(=O)COc1ccccc1[N+](=O)[O-])c1cccs1
20) Cc1cccc(N2CN(Cc3ccco3)CNC2=S)c1

compound no. | 16 | 17 | 18 | 19 | 20
RECQ1 helicase | 2% | -12% | i | i | -1%
LMNA splice mod | ? | · | 8% | · | -9%
GoLoco inh red | -4% | 9% | -1% | 0% | 4%
SMN2 splice enh | -38%[inhibitor] | 13% | -12% | 25µM* | -7%
TRb-SRC2 inh | -4% | 3% | -10% | 7% | 5%
KDM4E inh | 2% | 2% | 1% | -3% | 10%
TexasRed fluor | -3% | 0% | 1% | 0% | 1%

21) CCC(=O)Nc1ccccc1C(=O)N1CCCC1
22) C/C=C/c1ccc(OC)c(OC(C)=O)c1
23) CCc1ccccc1NC(=O)Cn1c(=O)n(-c2ccc(CC(=O)NCC3CCCO3)cc2)c(=O)c2ccccc21 (stereo not given)
24) CCOc1cccc(NC(=O)C(Cc2cccs2)c2nn[nH]n2)c1 (stereo not given)
25) Cc1cc(C)nc(/N=C(/NC(=O)c2ccccc2)Nc2ccccc2)n1

compound no. | 21 | 22 | 23 | 24 | 25
RECQ1 helicase | i | -8% | -12% | i | -11%
LMNA splice mod | 13% | 3% | -3%[46 µM] | 5% | 3%
GoLoco inh red | 11% | 0% | 8% | 7% | -10%
SMN2 splice enh | -12% | -1% | 0%&0% | 9% | 1%
TRb-SRC2 inh | -15% | -10% | -4%&6% | 0% | -7%
KDM4E inh | -1% | 1% | ? | -1% | 3%
TexasRed fluor | 3% | -3% | ? | 2% | -1%

Of the compounds above, five have a nitro group on carbon.
9) CC(C)CNC(=O)COC(=O)c1ccc([N+](=O)[O-])cc1Cl
10) COCCNC(=O)C1CC(c2ccccc2[N+](=O)[O-])=NO1 (stereo not given)
14) Cc1cc(C)n(CC(=O)c2cccc([N+](=O)[O-])c2)n1
15) Cc1nn(CCc2n[nH]c(=S)n2-c2ccc(F)cc2)c(C)c1[N+](=O)[O-]
19) C/C(=N\NC(=O)COc1ccccc1[N+](=O)[O-])c1cccs1

compound no. | 9 | 10 | 14 | 15 | 19
RECQ1 helicase | -5% | -16% | i | -3% | i
LMNA splice mod | 5% | -4% | · | 0% | ·
GoLoco inh red | 0% | 3% | 3% | -16% | 0%
SMN2 splice enh | 10% | -12% | 19% | -5% | 25µM*
TRb-SRC2 inh | 0% | 6% | -1% | -3% | 7%
KDM4E inh | 0% | 5% | -3% | -5% | -3%
TexasRed fluor | 0% | -1% | 0% | -4% | 0%

(continued)
26) c1cn(-c2ccc(-c3ccnc4ncnn34)cc2)cn1
27) Cc1[nH]c(=O)c(C#N)cc1-c1ccncc1
28) O=C(C1CCCC1)N1CCN=C1SCc1cccc([N+](=O)[O-])c1
29) CN(C)C(CNC(=O)Cc1cccc(C(F)(F)F)c1)c1ccco1 (stereo not given)
30) O=C(NCC(=O)N(Cc1cccs1)C(C(=O)NC1CCCCC1)c1cccnc1)c1ccco1 (stereo not given)

compound no. | 26 | 27 | 28 | 29 | 30
RECQ1 helicase | i | -11% | i | -3% | i
LMNA splice mod | -14%[46 µM] | ? | ? | · | 2%
GoLoco inh red | 12% | 4% | 5% | 58%[activator] | 5%
SMN2 splice enh | 0% | 5% | -32% | -9% | 2%
TRb-SRC2 inh | 2% | 4% | 4% | 4% | -9%
KDM4E inh | -6% | ? | 2% | ? | 4%
TexasRed fluor | -5% | -6% | -1% | 0% | 0%

3 entries out of the list, ordered by molar mass, rising:
28) O=C(C1CCCC1)N1CCN=C1SCc1cccc([N+](=O)[O-])c1
29) CN(C)C(CNC(=O)Cc1cccc(C(F)(F)F)c1)c1ccco1 (stereo not given)
25) Cc1cc(C)nc(/N=C(/NC(=O)c2ccccc2)Nc2ccccc2)n1

compound no. | 28 | 29 | 25
RECQ1 helicase | i | -3% | -11%
LMNA splice mod | ? | · | 3%
GoLoco inh red | 5% | 58%[activator] | -10%
SMN2 splice enh | -32% | -9% | 1%
TRb-SRC2 inh | 4% | 4% | -7%
KDM4E inh | 2% | ? | 3%
TexasRed fluor | -1% | 0% | -1%

(more compounds)
31) COc1cccc(/C(C)=N/NC(=O)c2cc(-c3cccnc3)nc3ccccc23)c1
32) COc1cc(NC(=O)C(C)Oc2ccccc2)cc(OC)c1 (stereo not given)
33) Cc1ccc(OCC(=O)Nn2cnnc2)c(Br)c1
34) O=C(NCc1ccc2c(c1)OCO2)c1nnc(Cc2ccc(F)cc2)o1
35) Cc1cc2cc(C)c3nnc(SCC(=O)NCc4ccc5c(c4)OCO5)n3c2cc1C

compound no. | 31 | 32 | 33 | 34 | 35
RECQ1 helicase | -3% | -4% | 6% | 2% | -6%
LMNA splice mod | -8% | -5% | -3% | 1% | 6%
GoLoco inh red | -4% | 5% | -2% | 1% | 5%
SMN2 splice enh | -17% | -8% | -4% | -11% | -3%
TRb-SRC2 inh | 4% | 5% | 9% | -3% | -9%
KDM4E inh | 6% | 6% | 2% | 0% | ?
TexasRed fluor | 3% | 0% | 0% | -1% | -3%

36) Cc1ccc(OC(=O)c2c(C)nn(-c3ccccc3)c2C)cc1
37) Cc1c(Cl)cccc1-c1ccc(/C=N/n2cnnc2)o1
38) COc1ccc(CNC(=O)COC(=O)[C@H](Cc2c[nH]c3ccccc23)NC(=O)c2cccs2)cc1
39) O=C(NCCc1ccccn1)C1CCN(S(=O)(=O)c2ccc3ccccc3c2)CC1
40) CCN(CC)C(=O)C(=O)Nc1ccc(OC)c(Cl)c1
41) CC(C)CCN(C(=O)Nc1ccccc1)C(C)c1cccs1 (stereo not given)

compound no. | 36 | 37 | 38 | 39 | 40 | 41
RECQ1 helicase | -4% | i | -11% | i | 9% | i
LMNA splice mod | · | ? | -5% | -6%[46 µM] | · | ?
GoLoco inh red | 4% | 21% | -11% | -4% | -16% | -16%
SMN2 splice enh | · | -12% | -4% | -5% | 15% | 3%
TRb-SRC2 inh | -4% | 6% | -3% | -3% | 2% | ?
KDM4E inh | -16% | -4% | 0% | 18% | 9% | -10%
TexasRed fluor | 0% | 2% | -8% | -1% | -4% | -2%&1%
